PV pol inh – poliovirus RNA polymerase inhibition | P03300 | poliovirus polymerase elongation, fluorescence polarization; stronger effect = lower value | % elongation, % (compound at 16.7 µg/mL) | actives 0.66% (n = 150,000); in the data active = % elongation below about 90%; also: some results filed as inactive read as strong as hits
Target sequence (P03300 1749-2209 limits assumed): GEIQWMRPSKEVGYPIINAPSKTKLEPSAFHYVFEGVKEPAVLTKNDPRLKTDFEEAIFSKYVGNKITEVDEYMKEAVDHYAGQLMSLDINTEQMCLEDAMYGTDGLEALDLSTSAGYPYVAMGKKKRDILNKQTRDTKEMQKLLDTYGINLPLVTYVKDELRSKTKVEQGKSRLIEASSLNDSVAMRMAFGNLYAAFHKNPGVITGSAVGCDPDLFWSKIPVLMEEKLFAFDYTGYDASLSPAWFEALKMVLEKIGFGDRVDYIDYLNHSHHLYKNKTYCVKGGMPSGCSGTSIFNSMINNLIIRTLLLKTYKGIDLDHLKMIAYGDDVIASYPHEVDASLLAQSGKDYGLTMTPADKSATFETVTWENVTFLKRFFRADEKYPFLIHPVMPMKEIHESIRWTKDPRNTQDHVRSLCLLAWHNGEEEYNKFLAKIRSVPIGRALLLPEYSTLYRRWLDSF
PV pol inh intensity – also measured in PV pol inh; calls as there; % elongation; measured here: total intensity read-out; formula for this scale not given here;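 total fluorescence in place of polarization; lower means less elongation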
Starred values were filed as active, the others as inactive. These rows are one share of the data, so the mix of outcomes need not match the whole.

SMILES,PV pol inh intensity,PV pol inh
CCc1cccc(C)c1NC(=O)C1CCN(S(=O)(=O)Cc2ccccc2)CC1,113.0,110.0
CCc1c(C)sc2c1CCN(C(=O)Nc1cc(C)cc(C)c1)C2c1ccccc1 (centres undefined),107.0,110.0
Cc1ccc(-c2cc(NC(=O)c3cccc(C)c3)on2)cc1,104.0,101.0
CCOc1ccc(Sc2cc(C(=O)NCc3ccc(F)cc3)c3ccccc3n2)cc1,111.0,115.0
CCOc1ccc(C(=O)N2CC(=O)Nc3ccc(C)cc3C2c2ccc(F)cc2)cc1OCC (centres undefined),106.0,105.0
Cc1ccc2c(c1)cc1c(=O)n(CC(=O)N(C)c3ccccc3)nc(C)n12,107.0,108.0
CCOC(=O)Cn1c(=O)n(CC2CCCO2)c2nc(-c3ccccc3)nc(C(N)=O)c21 (centres undefined),106.0,103.0
Cc1ccc(-c2c(C(=O)NCc3ccccc3)oc(=O)c3ccccc23)cc1,96.0,106.0
Cc1ccc(CSc2nc3ccsc3c(=O)n2CCC(C)C)cc1,113.0,107.0
O=C(COc1ccccc1F)Nc1ccc2nc(SCCOc3ccccc3)sc2c1,107.0,101.0
CCn1cc(C(=O)N2CCN(c3ccccc3F)CC2)c(=O)c2cc(S(=O)(=O)N(C)C)ccc21,110.0,108.0
CCOc1ccc(CNC(=O)c2ccc3oc(=O)n(Cc4ccccc4)c3c2)cc1,112.0,111.0
COC(=O)C1=C(C)N(C(C)C)C(=O)C1(NC(=O)c1ccccc1OC)C(F)(F)F (centres undefined),109.0,108.0
CCC(C(=O)Nc1ccc(C)c(Cl)c1)n1c(=O)c(-c2ccccc2NC(C)=O)nc2ccccc21 (centres undefined),107.0,105.0
CCSc1nc2c(c(=O)[nH]c(=O)n2C)n1CC(O)COc1ccc(Cl)cc1 (centres undefined),102.0,101.0
Cc1cc(C)c(OCCOCCn2c(-c3ccc(Cl)cc3)nc3ccccc3c2=O)c(C)c1,103.0,105.0
COc1cc(NS(=O)(=O)c2ccc(NC(=O)COc3ccc(Cl)cc3Cl)cc2)nc(OC)n1,108.0,107.0
COc1cccc(NC(=O)N2CCC(CN3CCOCC3)CC2)c1,112.0,111.0
COc1ccccc1CNc1nc2c(S(=O)(=O)c3ccc(C)c(C)c3)nnn2c2ccc(Cl)cc12,113.0,108.0
Cc1ccccc1Nc1c(-c2ccc(N3CCOCC3)cc2)nc2ccccn12,111.0,108.0

More entries follow.
SMILES,PV pol inh intensity,PV pol inh
CCc1ccccc1NC(=O)c1sc(-n2nc(C)c(Cc3ccccc3)c2C)nc1C,107.0,108.0
O=C(c1ccc2c(c1)N(Cc1ccc(Cl)cc1)C(=O)c1ccccc1S2(=O)=O)N1CCN(c2ccccn2)CC1,111.0,108.0
O=C(CSc1nc(=O)n(Cc2ccco2)c2c1CCC2)NCc1ccc(Cl)cc1,106.0,108.0
CSc1cccc(-n2nnc(-c3nsc(NC(=O)c4cccs4)n3)c2C)c1,112.0,109.0
CC(C)CC(=O)Nc1nc2c(s1)CC(C(C)(C)C)CC2 (centres undefined),105.0,110.0
Cc1ccc(NC(=O)Cn2c(=O)n(CCCS(=O)(=O)C3CCCCC3)c(=O)c3ccccc32)cc1F,108.0,106.0
CCOc1ccc(NC(=O)CCS(=O)(=O)c2cccc3nonc23)cc1,110.0,106.0
COc1ccc(-n2c(=O)c3c(c4cc(OC)ccc4n3C)n(Cc3cc(C)ccc3C)c2=O)cc1,114.0,107.0
COc1ccc(OC)c(CNC(=O)c2cc3c(-c4ccc(OC)c(OC)c4)nn(C)c3s2)c1,109.0,107.0
COC(=O)c1c(C)oc2ccc(N(C(=O)c3ccncc3)S(=O)(=O)c3ccc(Br)cc3)cc12,92.0,100.0
CCOC(=O)c1cnc2cc(C(F)(F)F)ccc2c1N1CCN(c2ccc(F)cc2)CC1,102.0,103.0
CCN(Cc1ccc(OC)cc1)c1ccc(-c2nc(-c3ccncc3)no2)cc1[N+](=O)[O-],107.0,104.0
Cc1cc(=O)n(Cc2cccc(Cl)c2)c2c1c(C)nn2C,110.0,106.0
COc1ccc(C(=O)NCc2ccc3c(c2)CCN3C(=O)c2ccc(Cl)cc2)c(OC)c1,108.0,112.0
O=C(NCCc1ccc(F)cc1)C(=O)NCC(c1ccc2c(c1)OCO2)N1CCOCC1 (centres undefined),109.0,104.0
CCN(CC)c1ccc(NC(=O)c2sc3nc4c(cc3c2N)CN(C)CC4)cc1,96.0,100.0
O=C(Nc1ccccc1)N(Cc1cccs1)c1ccc(F)cc1,106.0,104.0
Cc1ccc(C)c(N2CCN(C(=O)c3cccc(-n4c(C)nc5cccnc54)c3)CC2)c1,113.0,110.0
CCOc1ccc(CCNC(=O)c2cc3c(=O)n(C)c4ccccc4c3n2C)cc1OCC,107.0,109.0
Cc1ccc(C)c(CSc2c(C(C)C)cnc3c2c(=O)n(C)c(=O)n3C)c1,104.0,110.0

Another view of 19 compounds above.
Under each structure: PV pol inh intensity | PV pol inh
> CCc1ccccc1NC(=O)c1sc(-n2nc(C)c(Cc3ccccc3)c2C)nc1C
 : 107.0 | 108.0
> O=C(c1ccc2c(c1)N(Cc1ccc(Cl)cc1)C(=O)c1ccccc1S2(=O)=O)N1CCN(c2ccccn2)CC1
 : 111.0 | 108.0
> O=C(CSc1nc(=O)n(Cc2ccco2)c2c1CCC2)NCc1ccc(Cl)cc1
 : 106.0 | 108.0
> CSc1cccc(-n2nnc(-c3nsc(NC(=O)c4cccs4)n3)c2C)c1
 : 112.0 | 109.0
> CC(C)CC(=O)Nc1nc2c(s1)CC(C(C)(C)C)CC2 (centres undefined)
 : 105.0 | 110.0
> Cc1ccc(NC(=O)Cn2c(=O)n(CCCS(=O)(=O)C3CCCCC3)c(=O)c3ccccc32)cc1F
 : 108.0 | 106.0
> CCOc1ccc(NC(=O)CCS(=O)(=O)c2cccc3nonc23)cc1
 : 110.0 | 106.0
> COc1ccc(-n2c(=O)c3c(c4cc(OC)ccc4n3C)n(Cc3cc(C)ccc3C)c2=O)cc1
 : 114.0 | 107.0
> COc1ccc(OC)c(CNC(=O)c2cc3c(-c4ccc(OC)c(OC)c4)nn(C)c3s2)c1
 : 109.0 | 107.0
> COC(=O)c1c(C)oc2ccc(N(C(=O)c3ccncc3)S(=O)(=O)c3ccc(Br)cc3)cc12
 : 92.0 | 100.0
> CCOC(=O)c1cnc2cc(C(F)(F)F)ccc2c1N1CCN(c2ccc(F)cc2)CC1
 : 102.0 | 103.0
> CCN(Cc1ccc(OC)cc1)c1ccc(-c2nc(-c3ccncc3)no2)cc1[N+](=O)[O-]
 : 107.0 | 104.0
> Cc1cc(=O)n(Cc2cccc(Cl)c2)c2c1c(C)nn2C
 : 110.0 | 106.0
> COc1ccc(C(=O)NCc2ccc3c(c2)CCN3C(=O)c2ccc(Cl)cc2)c(OC)c1
 : 108.0 | 112.0
> O=C(NCCc1ccc(F)cc1)C(=O)NCC(c1ccc2c(c1)OCO2)N1CCOCC1 (centres undefined)
 : 109.0 | 104.0
> CCN(CC)c1ccc(NC(=O)c2sc3nc4c(cc3c2N)CN(C)CC4)cc1
 : 96.0 | 100.0
> O=C(Nc1ccccc1)N(Cc1cccs1)c1ccc(F)cc1
 : 106.0 | 104.0
> Cc1ccc(C)c(N2CCN(C(=O)c3cccc(-n4c(C)nc5cccnc54)c3)CC2)c1
 : 113.0 | 110.0
> CCOc1ccc(CCNC(=O)c2cc3c(=O)n(C)c4ccccc4c3n2C)cc1OCC
 : 107.0 | 109.0

(more compounds)
SMILES,PV pol inh intensity,PV pol inh
Cc1oc2ncnc(N3CCCCC3)c2c1C(=O)Nc1cccc(F)c1,92.0,102.0
CN(C)c1ccc(/C=C2/Sc3ccccc3C2=O)cc1,140.0,121.0
Cc1ccc2c(CC(=O)Nc3c(C(=O)c4ccc(F)cc4)oc4ccccc34)coc2c1C,114.0,115.0
CN(C)c1ccc(C(CNC(=O)c2ccc(C(C)(C)C)cc2)N2CCCC2)cc1 (centres undefined),114.0,108.0
CSc1nn(CC(=O)Nc2ccccc2F)c(N)c1S(=O)(=O)c1ccccc1,103.0,102.0
Cc1ccc(NC(=O)c2ccc(=O)n(CC(=O)Nc3cc(C)cc(C)c3)n2)cc1,109.0,110.0
Cc1ccc(CNC(=O)Cn2cc3c(n2)-c2c(oc(C(=O)N4CCOCC4)c2C)CC3)cc1,105.0,111.0
COc1ccc(CCNc2nc3c(c(=O)n(C)c(=O)n3C)n2Cc2ccccc2Cl)cc1OC,107.0,106.0
CC1(C)CC(=O)c2cc(-c3nc(-c4ccc(Cl)cc4)cs3)c(=O)n(-c3ccc(Cl)cc3)c2C1,111.0,100.0
COc1ccc(C)cc1NC(=O)Cn1c(=O)cc(C)c2c(C)nn(C)c21,108.0,106.0
COCCNc1ncnc2onc(-c3ccc(F)cc3)c12,110.0,110.0
O=C(CSc1nc(-c2cccs2)nc2cc(=O)[nH]n12)Nc1ccccc1,105.0,100.0
O=S(=O)(c1ccc(F)cc1)N1CCC(Oc2ccc(-n3cnnn3)cc2)CC1,104.0,101.0
Cc1ccc(CO)cc1Nc1ncnc2onc(-c3ccc(F)cc3)c12,102.0,99.0
CC(=O)c1ccc(NC(=O)c2cnn(-c3cccc(F)c3)c2-n2cccc2)cc1,114.0,107.0
CCOC(=O)c1ccc(NC(=O)C2CCCN(c3ncnc4onc(-c5ccc(F)cc5)c34)C2)cc1 (centres undefined),114.0,110.0
O=C(NCCc1csc(-c2cccc(F)c2)n1)c1ccccc1C(F)(F)F,115.0,111.0
COc1cccc2cc(-c3nc(Nc4cccc(C)c4)sc3C)c(=O)oc12,112.0,108.0
CC(=O)N1CCCc2cc(S(=O)(=O)N3CCC(C(=O)NC4CCCCC4)CC3)ccc21,103.0,101.0
COc1ccc(OC)c(CNC(=O)C(C)n2c(C)c3cnn(-c4ccccc4)c(=O)c3c2C)c1 (centres undefined),105.0,106.0

(list continues)
SMILES,PV pol inh intensity,PV pol inh
CCOC(=O)c1c(S(=O)(=O)NCC(=O)Nc2cccc(SC)c2)c(C)n(C)c1C,109.0,104.0
COc1ccc(-n2cc(-c3ccc4c(c3)OCO4)n(CC(=O)Nc3cccc(C)c3)c2=O)cc1,112.0,110.0
Cc1c(Cl)cccc1NC(=O)CCS(=O)(=O)c1cccc2nsnc12,103.0,101.0
CC1CN(C(=O)N2CCC(C(=O)NCc3cccs3)CC2)c2ccccc2O1 (centres undefined),107.0,112.0
COc1ccc(OCC(=O)N2CCN(C(=O)c3ccc(OC)cc3)CC2)cc1,109.0,106.0
CC1=C(C(=O)Nc2ccccc2C)C(c2ccncc2)n2nc(SCc3ccccc3Cl)nc2N1 (centres undefined),102.0,101.0
CCCCN(CC)CCCNC(=O)CCN1N=C(c2ccc(OC)cc2)CCC1=O,99.0,107.0
COc1ccc(-c2nc3ccccc3o2)cc1NC(=O)COc1cc(C)cc(C)c1,103.0,99.0
CCOc1ccccc1N1CC(c2nc3ccccc3n2CCCCOc2cc(C)ccc2C)CC1=O (centres undefined),115.0,113.0
CCOC(=O)c1ccc(OCC2c3cc(OC)c(OC)cc3CCN2C(=O)Cc2ccc(OC)c(OC)c2)cc1 (centres undefined),113.0,109.0
Cc1ccccc1CNC(=O)c1ccc2c(c1)N(Cc1ccccc1)CCS2,109.0,112.0
CCOC(=O)C1CCN(C(=O)c2c(C)nn(-c3ccc(F)cc3)c2-n2cccc2)CC1,113.0,106.0
Cc1ccc(CN2CCSc3ccc(C(=O)N4CCN(c5ccc(Cl)cc5)CC4)cc32)cc1,108.0,106.0
Cc1ccc(C(=O)Nc2ccc3[nH]c(=O)c(=O)[nH]c3c2)cc1,105.0,101.0
COc1cccc(-n2c(=O)c3c(C)c(C)sc3n(Cc3ccccc3C#N)c2=O)c1,105.0,102.0
Cc1cc(NC(=O)N2CCC(CN3CCCCCC3)CC2)ccc1Br,107.0,113.0
Cc1nn2c(=O)cc(COC(=O)c3ccccc3NC(=O)C3CCCCC3)nc2s1,109.0,108.0
CC1=C(C(=O)NCc2ccc(C)cc2)C2(CCCCC2)OC1=O,106.0,102.0
CCCCCNC(=O)c1c[nH]c2ccc(S(=O)(=O)N3CCC(C)CC3)cc2c1=O,111.0,106.0
Cc1ccc(NC(=O)CN2C(=O)C(c3ccc(C)cc3)=NC23CCCCCC3)cc1,103.0,102.0

Following part.
SMILES,PV pol inh intensity,PV pol inh
Cc1nn(C(=O)c2cccc(F)c2)c(C)c1S(=O)(=O)N1CCOCC1,96.0,102.0
O=C(NCCc1ccc(Cl)cc1)C(=O)NCC(c1ccc2c(c1)OCO2)N1CCOCC1 (centres undefined),104.0,111.0
Cc1nn(S(=O)(=O)c2ccc(F)cc2)c(C)c1S(=O)(=O)N1CCCCCC1,111.0,108.0
CCCCC(CC)CNC(=O)CN(C)S(=O)(=O)c1ccc2c(c1)c(=O)n(C)c(=O)n2C (centres undefined),103.0,106.0
COc1ccc(-n2c(=O)c3ccccc3n(Cc3ccccc3C)c2=O)c(OC)c1,105.0,103.0
O=C(Nc1ccc2nc(SCC(=O)N3CCCC3)sc2c1)c1ccccc1F,111.0,105.0
CCOc1ccc(OCC(=O)NCCS(=O)(=O)N2CCN(c3ccccc3F)CC2)cc1,112.0,109.0
COc1ccc(-c2cn3nc(SCC(=O)Nc4cc(C)cc(C)c4)ccc3n2)cc1,110.0,104.0
COc1cccc(Cn2nnc3c(=O)[nH]c(C4CCN(C(=O)c5ccccc5Cl)CC4)nc32)c1,108.0,104.0
COc1ccc(OC)c(-n2c(=O)[nH]c3cc(C(=O)NCCc4ccc(OC)c(OC)c4)ccc3c2=O)c1,113.0,113.0

Given with values under each structure: four of the compounds above
Order of results – PV pol inh intensity	PV pol inh
Cc1nn(C(=O)c2cccc(F)c2)c(C)c1S(=O)(=O)N1CCOCC1
    96.0	102.0
O=C(NCCc1ccc(Cl)cc1)C(=O)NCC(c1ccc2c(c1)OCO2)N1CCOCC1 (centres undefined)
    104.0	111.0
Cc1nn(S(=O)(=O)c2ccc(F)cc2)c(C)c1S(=O)(=O)N1CCCCCC1
    111.0	108.0
CCCCC(CC)CNC(=O)CN(C)S(=O)(=O)c1ccc2c(c1)c(=O)n(C)c(=O)n2C (centres undefined)
    103.0	106.0

High-throughput results from PubChem BioAssay.
